Bioassay records (PubChem)
gsp ag: agonists of gsp mutant (McCune-Albright syndrome). gsp mutant cells, cAMP HTRF, 30 min; control for the full effect not named in the record. Potency, µM (top dose mostly 76.9 µM), without a hit: at the highest dose activation (cAMP increase), usual class: activators. actives 0.13% (n = 340,000). AID 624287; active = well fitted activation curve with a large enough effect; inconclusive = small, poorly fitted or top-dose-only effect, or another doubt; inactive = no such curve, though single readings can be large or run the other way; cell line not stated here;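 further: phosphodiesterase inhibitor Ro 20-1724 added with compounds to block cAMP breakdown; potency means the concentration at half of the fitted maximal effect; nearly all actives have a fitted effect of over 60% in size; about a fifth of the inactives were tested at one dose only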
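Cells stably selected in G418 were plated at 2000/well, grown 16-24 hr, then given compounds in DMSO with the PDE inhibitor […] (300 uM solution added) for 30 min at 37C; cAMP was read by HTRF.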
TRPV1 potentiator: human TRPV1 potentiation; Q8NER1; TRPV1-expressing cells, Fluo-8 calcium influx, capsaicin EC20 potentiation; host cell line not named in the record; control for the full effect not named in the record; potentiation, % at 8.33 µM; actives 0.02% (n = 320,000); AID 540277; active means potentiation above 80%; inconclusive means 30% to 80%; inactive means below 30%; further: 0% is about no effect
Target sequence (Q8NER1 whole entry, looked up): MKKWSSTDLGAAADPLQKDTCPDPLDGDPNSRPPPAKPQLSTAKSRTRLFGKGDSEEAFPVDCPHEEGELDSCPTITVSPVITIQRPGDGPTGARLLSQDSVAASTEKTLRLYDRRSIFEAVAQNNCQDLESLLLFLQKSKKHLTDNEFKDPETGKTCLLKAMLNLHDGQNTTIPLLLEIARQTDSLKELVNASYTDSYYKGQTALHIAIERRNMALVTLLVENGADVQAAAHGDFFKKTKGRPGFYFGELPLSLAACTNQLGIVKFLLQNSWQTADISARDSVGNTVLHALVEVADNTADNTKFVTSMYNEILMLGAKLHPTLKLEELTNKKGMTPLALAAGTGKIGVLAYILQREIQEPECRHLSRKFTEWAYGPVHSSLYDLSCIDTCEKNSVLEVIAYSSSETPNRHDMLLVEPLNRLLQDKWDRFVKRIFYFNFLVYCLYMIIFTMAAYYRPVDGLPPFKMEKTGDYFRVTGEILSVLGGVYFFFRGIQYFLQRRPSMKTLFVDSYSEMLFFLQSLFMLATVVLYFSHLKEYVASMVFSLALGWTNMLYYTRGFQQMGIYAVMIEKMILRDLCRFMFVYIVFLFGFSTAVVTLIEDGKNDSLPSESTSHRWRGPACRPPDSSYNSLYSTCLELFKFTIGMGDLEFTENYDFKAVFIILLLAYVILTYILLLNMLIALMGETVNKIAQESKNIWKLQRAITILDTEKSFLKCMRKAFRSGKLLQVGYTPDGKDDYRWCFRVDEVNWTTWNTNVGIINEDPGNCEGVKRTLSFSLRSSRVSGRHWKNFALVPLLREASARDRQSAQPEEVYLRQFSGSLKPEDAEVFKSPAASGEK
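Fluo-8 calcium influx in TRPV1-expressing cells, kinetic read (ex 480/em 520 nm). Compound added and read 3 min for agonist activity, followed by capsaicin at EC20 final and 2 min further read for enhancement.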
Menin MLL FP FL: displaces fluorescein MLL peptide from human menin | Fluorescence polarization, fluorescein-MLL peptide displacement from menin | FP activity change, % at 61.4 µM | 290,000 tested, under 10 active | AID 1766; inconclusive = falling polarisation curve, or a change in total fluorescence; inactive = total fluorescence flat and polarisation flat or rising; no compound was filed as active; the % refers to the polarisation; negative = inhibition;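 further: % of control where 0% means no effect; inhibitors lower the polarisation; unlabelled MLL peptide was the positive control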
gsp antag: antagonizes gsp, the McCune-Albright syndrome mutation | gsp-mutant cells, cAMP HTRF, 30 min; control for the full effect not named in the record | Potency, µM (series often up to 76.9 µM), for the others: top-dose activity change, negative = inhibition, usual class: inhibitors | actives 0.4% (n = 340,000) | AID 624288; active = falling curve of any shape with a large fitted effect; inconclusive = falling curve, mostly with a smaller effect; inactive = flat or rising curve; cell line not stated here;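 further: intracellular cAMP measured with PDE inhibitor Ro 20-1724 present during compound exposure; potency means the concentration at half of the fitted maximal effect; on the % scale 0 is the no-effect control and ±100 the full control effect; nearly all actives have a fitted effect of over 65% in size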
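HTRF cAMP read-out (cAMP-d2 plus anti-cAMP antibody-K in lysis buffer, 30 min RT). Before lysis, cells are exposed to compounds with […] for 30 min at 37C in DPBS containing Ca/Mg, BSA and Tween 20.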
Sfp inh: blocks B. subtilis Sfp PPTase activity | Biochemical Sfp PPTase activity, qHTS | Potency, µM, without a hit: max response, negative = inhibition, most hits filed as inhibitors | actives 3.5% (n = 310,000) | AID 1490; active means well fitted inhibition curve with a large enough effect; inconclusive means small, poorly fitted or top-dose-only effect, or another doubt; inactive means no such curve, though single readings can be large or run the other way;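 further: the enzyme is Sfp with the accession as filed and its product quenches rhodamine fluorescence; potency means the concentration at half of the fitted maximal effect; 0% = enzyme reaction without inhibitor and -100% = no enzyme wells; top concentration of the series not given in the record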
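Reaction rates are the 30-min fluorescence difference (ex 525, em 598 nm) in wells containing 15 nM Sfp, 5 uM rhodamine-CoA and 12.5 uM BHQ-2-YbbR at pH 7.6 with 10 mM MgCl2.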
ClpP mod: qHTS Assay for Activators of ClpP; Potency, µM (top dose mostly 57.5 µM), inactives show at the highest dose activity change, negative = active; actives 1.9% (n = 340,000); AID 651965, 2013; purified B. subtilis ClpP, FRET peptide cleavage, 20 min; active = well fitted falling curve with a large enough effect; inconclusive = small, poorly fitted or top-dose-only effect; inactive = no such curve, though single readings can be large or run the other way; further: potency means the concentration at half of the fitted maximal effect; the source files actives as falling curves though it sought activators and does not explain the sign; nearly all actives have a fitted effect of over 65% in size; many hits overshoot -100%
Target sequence (P80244 whole entry, looked up): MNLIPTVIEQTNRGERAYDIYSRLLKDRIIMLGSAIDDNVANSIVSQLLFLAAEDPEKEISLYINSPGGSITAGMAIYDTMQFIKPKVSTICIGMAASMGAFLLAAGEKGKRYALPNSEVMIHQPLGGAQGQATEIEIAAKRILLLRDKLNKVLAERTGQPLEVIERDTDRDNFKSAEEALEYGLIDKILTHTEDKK
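Buffer: 100 mM Tris/HCl pH8, 100 mM KCl, 0.05% low protease BSA, 2.5% glycerol, 0.01% Tween-20. ClpP 10 microg/mL final; 20 min RT; delta FRET normalized to ADEP and DMSO controls.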
D2 potentiator: potentiates the human D2 dopamine receptor allosterically. actives 0.23% (n = 360,000). P14416. AID 624464. potentiation, % (test concentration not listed). DiscoveRx D2 beta-arrestin cells, luminescence, 90 min; 100% = 57 uM dopamine signal; active = potentiation of 50% or more; inconclusive = 30% to 50%; inactive = 30% or less;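 further: compound concentration not given in the record; tested on top of an EC20 dose of dopamine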
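PathHunter beta-arrestin assay in DiscoveRx D2 cells. Compounds were added with an EC20 of dopamine (50 nM final) for 90 min at 37 deg C. Luminescence was read 1 h after detection reagent, with 57 uM dopamine as the EC100 control.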
* hit, by the source's call; ? = inconclusive; / = not tested or not shown; [ ] = another dose, or the depositor's remark.

Results follow in this order: gsp ag	TRPV1 potentiator	Menin MLL FP FL	gsp antag	Sfp inh	ClpP mod	D2 potentiator
> CC(C)CC(=O)N1CC=CC[C@@H](c2ccc(Cl)cc2)N(Cc2ccc(Cl)cc2)C(=O)[C@@H]1Cc1ccccc1
→ /	/	/	-4%	/	-1.0%	-9
> COc1ccc(/C=C2/SC(=O)N(CCNC(=O)CC(NC(C)=O)c3ccccc3)C2=O)cc1 (stereo not given)
→ -11%[15.4 µM]	7	2.9	4%	-1%	/	-2
> O=C1CN(C(=O)c2ccc(Cl)nc2)c2ccccc2N1
→ -3%[15.4 µM]	2	0.5	/	15%	/	-10
> Nc1ccn([C@@H]2O[C@H](CNCC3=CCOc4ccc(O)cc43)[C@@H](O)[C@H]2O)c(=O)n1
→ -32%[inhibitor]	/	/	/	/	-1.2%	15
> Cc1cc2cc(C)c3nnc(SCC(=O)Nc4ccc(S(=O)(=O)N5CCCCC5C)cc4)n3c2cc1C (stereo not given)
→ 18%	23	1.3	-2%	-25%	-7.1%	-11
> CCCCn1c(-c2csc(CCC)c2)n[nH]c1=S
→ 24%	-17	0.3	-6%	?	/	-7
> COc1cc(NS(=O)(=O)c2ccc(NC(=O)c3ccc([N+](=O)[O-])cc3)cc2)ncn1
→ 4%	-3	0.0	9%	3%	-10%	0
> COc1ccc(OC2CCN(S(=O)(=O)c3ccccc3)CC2)cc1
→ -16%	-10	-2.1	7%	5%	-2.6%	-2
> CN1CCCC(OC(=O)c2ccc3c(c2)OCCO3)C1 (stereo not given)
→ 2%	-1	-1.1	9%	-8%	-11%	-10
> CCC(O)C1CCN(Cc2cn(-c3ccc(OC)cc3)nc2-c2cccc(F)c2)CC1 (stereo not given)
→ -9%[15.4 µM]	0	-4.1	10%	-6%	-1.3%	-12
> CC(C)CN(C(=O)c1ccc2c(c1)OCCO2)c1c(N)n(Cc2ccccc2)c(=O)[nH]c1=O
→ 1%	11	/	9%	/	-2.3%	-22
> COc1cccc([C@@H]2CC=C(C(=O)O)[C@H](c3ccc(Cl)cc3)N2S(=O)(=O)c2ccc(C)cc2)c1
→ /	-22	/	-15%	/	0.9%	4
> CN(O)/C=N/C(=S)Nc1ccc(Cl)cc1Cl
→ 18%	-2	1.4	7%	?	0.6%	-11
> Cc1cc(C)n(-c2nnc(C)n2/N=C/c2ccccc2O)n1
→ -4%[15.4 µM]	-1	1.6	10%	-14%	-4.0%	-6
> C[C@H](CO)N1C[C@H](C)[C@@H](CN(C)S(=O)(=O)c2ccccc2F)Oc2ncc(Br)cc2C1=O
→ -48%[inhibitor]	/	/	/	/	0.8%	8
> Cc1nn(C)c(-c2n[nH]c(=S)n2-c2ccccc2)c1Cl
→ ?	2	3.6	19%	9%	-1.2%	-7
> CC(C)CCn1c(=O)c2c(nc3n2CCCN3Cc2ccccc2)n(C)c1=O
→ 3%	-11	3.0	-20%	4%	/	-1
> CCOC(=O)c1snc(-c2ccc(F)cc2)c1N
→ ?	0	0.7	1%	1%	-19%	-4
> CCCOc1ccccc1N/C(=N/c1nc(C)cc(C)n1)NC(=O)Nc1ccc(Cl)cc1
→ -9%	5	1.8	11%	-22%	-0.3%	-28
> CN1CCN(S(=O)(=O)c2cccc(C(=O)NCc3ccccc3Cl)c2)CC1
→ 5%[15.4 µM]	-7	-2.9	6%	5%	-2.3%	-6
> FC(F)(F)c1nc2ccccc2n1CCNc1nc(CN2CCCCC2)cs1
→ /	-5	2.6	5%	4%	-0.9%	-14
> O=C1CCCN1CCc1cccc2ccccc12
→ -1%	/	/	4%	/	/	-5
> O=S(=O)(c1cccc(-c2csc(-c3cccnc3)n2)c1)N1CCOCC1
→ 17%[15.4 µM]	7	?	1%	-3%	/	-4
> COc1ccc(NC(=O)CN(C)C(=O)c2cccc(S(=O)(=O)N3CCCc4ccccc43)c2)cc1
→ -43%[inhibitor]	6	/	?	/	0.8%	-24
> Cc1cc(OCC(=O)NC(Cc2c[nH]c3ccc(O)cc23)C(=O)O)c2c(C)c(C)c(=O)oc2c1 (stereo not given)
→ /	20	0.1	-2%	16%	4.8%	17
> COc1cc(S(=O)(=O)N2CCN(Cc3cccs3)CC2)ccc1NC(C)=O
→ 1%	2	/	13%	/	0.9%	-8
> CCOc1ccc(NC(=O)CSc2nc3[nH]ncc3c(=O)[nH]2)cc1
→ 0%	-4	/	9%	/	-1.1%	-4
> NS(=O)(=O)c1ccc(NC(=S)NC(=O)/C=C/c2cccs2)cc1
→ -10%[15.4 µM]	3	-0.7	-4%	1%	/	5
> COc1ccc(CCNC(C(=O)Nc2cc(C)cc(C)c2)c2ccccc2)cc1 (stereo not given)
→ -3%[15.4 µM]	28	/	-12%	-4%	-1.5%	-25
> COc1ccccc1NC(=O)C(C)Sc1nnc2ccccn12 (stereo not given)
→ 1%	5	/	4%	/	-12%	-3

Next section.
Results follow in this order: gsp ag	TRPV1 potentiator	Menin MLL FP FL	gsp antag	Sfp inh	ClpP mod	D2 potentiator
> O=C(Cc1ccccc1)c1ccccn1
→ 5%	/	/	-3%	/	-3.5%	-4
> C(=C\c1ccccc1)/C=N/Nc1nc(N2CCOCC2)nc(N2CCOCC2)n1
→ -30%	8	-0.5	-7%	-4%	1.7%	-14
> Cc1ccc(C)c(CSc2nc(-c3ccco3)nc3c2c(=O)n(C)c(=O)n3C)c1
→ /	-2	4.1	/	0%	/	/
> Cn1c(N/N=C\c2cccc(O)c2)cc(=O)n(C)c1=O
→ -48%[inhibitor]	-14	0.3	-9%	-4%	-2.4%	-17
> O=C(Nc1nnc(CCS(=O)(=O)c2ccc3ccccc3c2)s1)c1cccs1
→ 4%	-6	6.8	?	10%	-2.7%	-1
> O=C(Nc1ccc(C(=O)O)cc1)Nc1ccc([N+](=O)[O-])cc1
→ 8%[15.4 µM]	8	0.4	12%	0%	0.1%	-9
> CC1=CC(C)(C)NC(=S)N1C(C)c1ccccc1 (stereo not given)
→ -34%[inhibitor]	-40	-0.3	-17%	16%	0.8%	-2
> Cc1ccc2nc(N(CCCN(C)C)C(=O)c3ccc(S(=O)(=O)N4CCCCCC4)cc3)sc2c1
→ -2%	-6	-0.3	-13%	-20%	0.8%	-22
> Cc1ccc(C2=Nc3ccccc3NC(C)(c3ccc(C)o3)C2)o1 (stereo not given)
→ 24%	-13	?	-6%	-23%	-2.8%	-3
> CC(CC(=O)Nc1nccs1)c1ccccc1 (stereo not given)
→ 19%	-3	7.3	2%	20%	/	-7
> Cc1ccc(N2CC(=O)N(NC(=O)c3sc4nc(C)cc(C)c4c3N)CC2=O)cc1
→ 33%[15.4 µM]	7	5.0	7%	7%	/	-7
> COC(=O)c1c(NC(=O)COC(=O)CNC(=O)C2CCCCC2)sc(C)c1C
→ -49%[inhibitor]	-20	4.6	-4%	-19%	-6.3%	-13
> Cc1ccccc1OCCn1c(CCNC(=O)C(C)C)nc2ccccc21
→ -1%	-25	4.4	0%	-1%	46%	-19
> O=C(c1ccc2c(=O)n3c(nc2c1)CCCCC3)N1CCCCC1
→ 3%	3	/	5%	13%	-1.1%	-14
> Cc1ccc(-c2nnn(CC(=O)N(CC3CCCO3)C(C(=O)NC3CCCC3)c3ccc(O)cc3)n2)o1 (stereo not given)
→ -24%[15.4 µM]	-2	7.3	-3%	1%	-0.7%	-7
> COc1ccc(C(=O)NC2CCN(S(=O)(=O)c3ccc(F)cc3)CC2)cc1
→ 14%	-3	-4.2	4%	14%	-0.1%	-1
> COC(=O)C(C)Sc1nc(NCc2ccccc2)nc(N(C)C)n1 (stereo not given)
→ -18%[15.4 µM]	-6	-1.5	-8%	2%	/	-1
> O=C(NNC(=S)Nc1ccccc1)c1cccc(Br)c1
→ 13%	15	-1.0	-22%	14%	18%	-21
> COc1cc(Cl)c(C)cc1NC(=O)c1ccc(S(C)(=O)=O)cc1
→ -6%	-5	-2.6	6%	4%	-1.6%	-4
> O=C(Nc1ccncc1)c1sc2ccccc2c1Cl
→ 1%[15.4 µM]	-4	1.3	4%	9%	/	-1

In the list so far, these contain a Cl atom:
Results follow in this order: gsp ag	TRPV1 potentiator	Menin MLL FP FL	gsp antag	Sfp inh	ClpP mod	D2 potentiator
> CC(C)CC(=O)N1CC=CC[C@@H](c2ccc(Cl)cc2)N(Cc2ccc(Cl)cc2)C(=O)[C@@H]1Cc1ccccc1
→ /	/	/	-4%	/	-1.0%	-9
> O=C1CN(C(=O)c2ccc(Cl)nc2)c2ccccc2N1
→ -3%[15.4 µM]	2	0.5	/	15%	/	-10
> COc1cccc([C@@H]2CC=C(C(=O)O)[C@H](c3ccc(Cl)cc3)N2S(=O)(=O)c2ccc(C)cc2)c1
→ /	-22	/	-15%	/	0.9%	4
> CN(O)/C=N/C(=S)Nc1ccc(Cl)cc1Cl
→ 18%	-2	1.4	7%	?	0.6%	-11
> Cc1nn(C)c(-c2n[nH]c(=S)n2-c2ccccc2)c1Cl
→ ?	2	3.6	19%	9%	-1.2%	-7
> CCCOc1ccccc1N/C(=N/c1nc(C)cc(C)n1)NC(=O)Nc1ccc(Cl)cc1
→ -9%	5	1.8	11%	-22%	-0.3%	-28
> CN1CCN(S(=O)(=O)c2cccc(C(=O)NCc3ccccc3Cl)c2)CC1
→ 5%[15.4 µM]	-7	-2.9	6%	5%	-2.3%	-6
> COc1cc(Cl)c(C)cc1NC(=O)c1ccc(S(C)(=O)=O)cc1
→ -6%	-5	-2.6	6%	4%	-1.6%	-4
> O=C(Nc1ccncc1)c1sc2ccccc2c1Cl
→ 1%[15.4 µM]	-4	1.3	4%	9%	/	-1

Arranged by number of heavy atoms (falling): some entries from above.
Results follow in this order: gsp ag	TRPV1 potentiator	Menin MLL FP FL	gsp antag	Sfp inh	ClpP mod	D2 potentiator
> COC(=O)c1c(NC(=O)COC(=O)CNC(=O)C2CCCCC2)sc(C)c1C
→ -49%[inhibitor]	-20	4.6	-4%	-19%	-6.3%	-13
> Cc1ccccc1OCCn1c(CCNC(=O)C(C)C)nc2ccccc21
→ -1%	-25	4.4	0%	-1%	46%	-19
> Cn1c(N/N=C\c2cccc(O)c2)cc(=O)n(C)c1=O
→ -48%[inhibitor]	-14	0.3	-9%	-4%	-2.4%	-17
